H5N1 antiviral: MDCK cell protection from H5N1 avian flu; AID 740, 2007; inhibition, % at 50 µM; 96,000 tested, 0.07% active; cytopathic effect, luminescence, 72 h; stronger effect = higher value; no value below 0 was filed and about half of the inactive calls have no number; reference of the scale not given here; in the data active means inhibition above about 25%
* = called active by the depositor; i = inactive. This is a subset; count on the stated rates, not on these rows.

Compound	H5N1 antiviral
COc1cccc(C2C(C(C)=O)=C(O)C(=O)N2Cc2ccco2)c1 (configuration not stated)	i
COc1ccc(C2C(Oc3ccccc3)C(=O)N2c2cc(C)ccc2C)cc1OC (configuration not stated)	i
O=C(NCc1cccs1)C1CCN(S(=O)(=O)N2CCCC2)CC1	0.1
COc1ccc(CCNC(=O)C2CCN(Cc3nc(-c4ccccc4F)oc3C)CC2)cc1OC	i
CCN(CC)C(=O)CSC1=C(C#N)C(c2cccs2)C=C(C)N1 (configuration not stated)	1.0
O=C(Nc1ccccc1-c1nc2ccccc2s1)c1ccc(Br)o1	i
O=C(Nc1cccnc1)C(Cc1ccccc1)n1cccc1 (configuration not stated)	i
CCn1c(SC(C)C)nnc1-c1c[nH]c2ccccc12	1.8
Cc1cc(C)nc(Nc2ncc(O)n2-c2ccc(C)c(C)c2)n1	0.0
CCS(=O)(=O)N1CCN(C(=O)CCC2CCCC2)CC1	1.9
Cc1ccc(NC(=O)COc2ccc(/C=C3/SC(=Nc4ccccc4)N(Cc4cccnc4)C3=O)cc2)cc1	i
CCCSC1=C(C#N)C(c2ccc(O)c(OC)c2)CC(=O)N1 (configuration not stated)	1.0
CCOC(=O)c1nn(-c2ccccc2)c(=O)cc1SC(C)C	i
c1ccc2c(C[n+]3csc4ccccc43)cccc2c1	0.5
Nc1cc(=O)[nH]c(SCC(=O)Nc2ccc(F)c(Cl)c2)n1	i
N#Cc1c(-n2ccnc2)cccc1-n1ccnc1	0.5
COc1cccc(C(=O)N2CCN(CCCc3ccccc3)CC2)c1OC	i
CC(C)(C)C(=O)c1sc2nc(-c3cccs3)cc(C(F)(F)F)c2c1N	i
O=C(O)c1cc2nc(-c3ccccc3)cc(C(F)(F)F)n2n1	0.1
N#Cc1cc(-c2ccccc2)nnc1Sc1ccc(Cl)cc1	2.6
O=C(CSc1ncnc2c1oc1ccccc12)Nc1ccccc1F	3.3
O=S1(=O)CC2(N3CCOCC3)CCCCCCC21 (configuration not stated)	i
O=C(NC1CCCC1)c1cccc(S(=O)(=O)N2CCCCC2)c1	0.9
O=C(Nc1ccc2ccccc2c1)Nc1ccc2snnc2c1	i
CC1(C)N=C(SCC(=O)Nc2ccc(Cl)cc2Cl)C(c2ccccc2)=N1	i
Cc1c(C(=O)Nc2ccc(Cl)cn2)oc2ccccc12	i
C=CCNC(=O)c1snnc1-c1ccccc1	0.4
c1ccc(-c2cnc(CSc3nnc4ccccn34)o2)cc1	2.6
COC(=O)CSc1nnc2n(C3CCCCC3)c(=O)c3c4c(sc3n12)CCCC4	2.6
Cn1nc([N+](=O)[O-])nc1N1CCN(c2ccc(F)cc2)CC1	0.3
Cc1c(Cl)cccc1Nc1nc(N)nc(CSCCO)n1	i
Cc1cccc(-c2nnc(-c3ccccc3)o2)c1	0.3
Cc1ccc(CN2CCN(Cc3ccccc3C(F)(F)F)CC2)cc1	i
Cc1ccccc1CN1CCN(C/C=C/c2ccccc2)CC1	i
COc1ccc(CN(Cc2cc3cc(OC)c(OC)cc3[nH]c2=O)C(=O)NC2CCCCC2)cc1	i
Cc1cccc(NC(=S)N2N=CCC2c2ccccc2)c1 (configuration not stated)	0.5
O=C(NC(=S)Nc1ccc(N2CCCCC2)cc1)c1ccco1	0.5
COCc1cc(C)nc2sc(C(=O)N3CCCCC3)c(N)c12	0.8
CCC(c1nnnn1C(C)(C)C)N1CCN(C2CCCC2)CC1 (configuration not stated)	i
Cc1nc(Nc2ccc3c(c2)OCCO3)c2oc3ccccc3c2n1	0.1
CCOC(=O)COC(=O)c1ccc(O)cc1	0.3
CC1CN(S(=O)(=O)c2ccc(Cl)c(S(=O)(=O)N3CC(C)OC(C)C3)c2)CC(C)O1 (configuration not stated)	i
Cn1ccnc1SCc1cn2ccccc2n1	0.4
C/C(=N\NC(=O)CC1N=C(Cc2ccccc2)NNC1=O)c1ccc(C)cc1 (configuration not stated)	0.8
Cc1ccc(CN2CC34C=CC(O3)C(C(=O)NCc3ccco3)C4C2=O)cc1 (configuration not stated)	1.0

Looked up one by one from the entries so far:
Compound	H5N1 antiviral
CCC(c1nnnn1C(C)(C)C)N1CCN(C2CCCC2)CC1 (configuration not stated)	i
CC1(C)N=C(SCC(=O)Nc2ccc(Cl)cc2Cl)C(c2ccccc2)=N1	i
C=CCNC(=O)c1snnc1-c1ccccc1	0.4
Cc1c(Cl)cccc1Nc1nc(N)nc(CSCCO)n1	i
Cc1ccc(CN2CC34C=CC(O3)C(C(=O)NCc3ccco3)C4C2=O)cc1 (configuration not stated)	1.0

New compounds follow:
Compound	H5N1 antiviral
CCOC(=O)C(Cc1ccccc1)NC(=O)CCc1c(C)nc2nc(C)nn2c1C (configuration not stated)	i
CCn1c(SCC(=O)NC(C)c2ccccc2)nc2ccccc21 (configuration not stated)	i
COc1cc(C(=O)N2CCCC(c3nc(-c4cccs4)no3)C2)cc(OC)c1OC (configuration not stated)	2.8
COc1ccc(OCCSc2nc(N)cc(N)n2)cc1	i
O=C1N2CCSC2=NC1(NS(=O)(=O)c1ccccc1)C(F)(F)F (configuration not stated)	0.3
COc1cc(O)oc1C=Nc1ccc(Cl)cc1	i
CCOc1ccc(Nc2nc(NCCN3CCOCC3)nc(OC)n2)cc1	0.1
Cc1ccc(NC(=O)CSc2nc3ccccc3c3nc4ccccc4n23)cc1	i
O=c1nc(-c2ccccc2)c2ccccc2[nH]1	0.9
O=C(c1cnn2c(C(F)F)cc(-c3ccccc3)nc12)N1CCOCC1	0.6
COc1ccc(-c2nc(Cn3c(SCc4ccc(C)cc4)nc4ccncc43)c(C)o2)cc1OC	i
O=C1CCCCCN1Sc1ccccc1	i
O=C(COC(=O)c1cccc(S(=O)(=O)N2CCN(c3ccccc3)CC2)c1)NCc1ccco1	i
CCOC(=O)c1c(-c2ccccc2)nc2c(C)cccn12	0.2
CCOC(=O)N1CCN(S(=O)(=O)c2ccc(OCC)c3ccccc23)CC1	1.3
C=CCOC(=O)C1=C(C)Nc2nnnn2C1c1ccc(OC)cc1OC (configuration not stated)	0.6
CCCC12CN3CC(CCC)(CN(C1)C3C(O)C(O)C(O)CO)C2=O (configuration not stated)	i
O=C(CCN1C(=O)c2ccncc2C1=O)Nc1ccc(F)cc1	i
CCn1c(SCC(=O)Nc2nc3ccccc3s2)nnc1-c1ccc(OC)cc1	i
COc1ccc2cc(C#N)c(NC(C)C)nc2c1	0.6
O=C(Nc1nncs1)c1ccc(Br)c(S(=O)(=O)N2CCCC2)c1	1.4
Cc1ccc(-n2c(Cc3cccs3)nnc2SCC(=O)Nc2ccc(S(N)(=O)=O)cc2)cc1	0.1
Cc1ccc(-c2nnn(CC(=O)N(CC(=O)NCC3CCCO3)c3ccc(F)c(Cl)c3)n2)o1 (configuration not stated)	i
O=C(CCNc1n[nH]c(=O)[nH]c1=O)N1CCOCC1	0.5
CCCCC(=O)Nc1nc(C)c(C(C)=O)s1	1.1
CCCn1c(CNS(=O)(=O)c2ccc(C)cc2)nc2ccccc21	0.4
COc1ccnc(Oc2ccccc2)c1C#N	1.1
Nc1ccc(-c2sc(N)nc2-c2ccccc2)cc1	i
N#Cc1cccc(NC(=O)CSc2ccc3c4c(cccc24)C(=O)c2ccccc2-3)c1	7.1
CCN(CC)c1nc2cc(OC)ccc2cc1C#N	0.3

An excerpt of these results, with each value named:
COc1cc(O)oc1C=Nc1ccc(Cl)cc1
  H5N1 antiviral: i
CCOc1ccc(Nc2nc(NCCN3CCOCC3)nc(OC)n2)cc1
  H5N1 antiviral: 0.1
Cc1ccc(NC(=O)CSc2nc3ccccc3c3nc4ccccc4n23)cc1
  H5N1 antiviral: i
O=c1nc(-c2ccccc2)c2ccccc2[nH]1
  H5N1 antiviral: 0.9

Next entries.
Compound	H5N1 antiviral
Cc1ccc(-n2cnc(=O)c3cccnc32)cc1	0.5
Cc1ccc(CCNC(=O)c2ccc(CS(=O)(=O)Cc3ccccc3F)o2)cc1	1.9
COc1ccc(CCNC(=O)CN2CCN(Cc3ccc(F)cc3)C2=O)cc1OC	i
CCn1c(=O)c2c3c(sc2n2cnnc12)CCC3	2.0
Oc1c(-c2cc(-c3ccco3)[nH]n2)ccc2ccccc12	i
CCCN(Cc1cc2cc(C)ccc2[nH]c1=O)S(C)(=O)=O	i
CCOc1ccc(C(=O)N(CN2CCCC2=O)c2ccccc2)cc1	i
Clc1ccccc1OCc1nnc(-c2ccccc2Br)o1	1.4
Cc1ccnc2nc(C(=O)Nc3cc(Cl)ccc3N3CCOCC3)nn12	5.7
O=C(NC1CCCCC1)N1CCc2ccccc21	1.8
Cc1c(NC(=O)c2ccc(F)c(S(=O)(=O)N3CCOCC3)c2)c(=O)n(-c2ccccc2)n1C	0.4
CCc1nc(SCC(=O)c2ccc(C)c(C)c2)n[nH]1	0.6
O=C(NCc1ccccc1Cl)C1CCCN(S(=O)(=O)c2cccc3nsnc23)C1 (configuration not stated)	i
CCCCCCc1cc2cc(-c3nnc(-c4ccccc4O)o3)c(=O)oc2cc1O	15
CCc1ccc(OCCNC(=O)c2cccs2)cc1	0.5
CC(=O)N(CC(=O)O)c1ccccc1C(=O)O	i
O=[N+]([O-])c1ccc2nc(-c3ccc(Cl)cc3)n(OCc3ccccc3)c2c1	i
CN(C)CCN=Cc1c(O)n(Cc2ccco2)c(=O)[nH]c1=O	i
COC(=O)[C@H](Cc1ccccc1)NC(=O)NCc1ccc(S(N)(=O)=O)cc1	0.2
CC1(C)Oc2ccc3ccc(=O)oc3c2/C(=C/N)C1=O	0.2
N#Cc1cc2sc3nnc(-c4ccncc4)n3c2cc1C#N	22
CCOC(=O)c1c(NC(=O)CSc2nnc(-c3ccncc3)n2Cc2ccco2)sc(C)c1C	i
COc1ccc(C(=O)Nc2ccc(S(=O)(=O)N3CCOCC3)cc2)cc1OC	0.4
C=CCNC(=O)C1CCN(S(=O)(=O)CC)CC1	i
O=C(CSc1ncn[nH]1)NC1CC2CCC1C2 (configuration not stated)	0.8
COCCn1nnnc1C(c1ccccc1)N1CCN(Cc2ccc3c(c2)OCO3)CC1 (configuration not stated)	0.5
Cc1cc(CN2C(=O)c3ccccc3C2=O)cc(N2CCOCC2)c1	i
C=CCn1c(COc2ccccc2F)nnc1SCC(=O)NC(=O)NCc1ccco1	0.3
CCOC(=O)CCC(=O)N1CCNC(=O)C1	0.6
O=C(Nc1ccc2c(c1)OCO2)c1cc2n(n1)C(C(F)(F)F)CC(c1ccccc1)N2 (configuration not stated)	i
C=CCn1c(SCC(=O)Nc2cc(NC(C)=O)ccc2OC)nnc1-c1ccccn1	0.4
CCn1cc(C2=NOC(C(=O)Nc3cc(C)nn3-c3ccccc3)C2)c(C)n1 (configuration not stated)	0.8
CCNc1ccc(P(=S)(N(C)C)N(C)C)cc1	1.6
CNc1nc2c(c(=O)n(C)c(=O)n2C)n1Cc1ccccc1	1.1
O=C(COc1ccccc1O)Nc1ccc(Cl)cc1	0.9
COc1ccc(C(=O)OCC(=O)Nc2ccc(F)cc2F)cc1OC	3.0
OC(COc1ccc2cc(Br)ccc2c1)CN1CCCC1 (configuration not stated)	i
COc1ccc(NC(=O)C2CCCN(S(=O)(=O)c3cnc[nH]3)C2)cc1 (configuration not stated)	i
COc1ccc(/C=N/n2c(=O)[nH]c3c([nH]c4ccc(C)cc43)c2=O)cc1CN1CCOCC1	0.2
COc1ccc(CC(=O)Nc2ccc(S(=O)(=O)NC(C)C)cc2)cc1	0.9
O=S(=O)(c1ccccc1)N1CCN(S(=O)(=O)c2ccccc2)C1	1.0
CCn1c(SCC(=O)Nc2ccc(N3CCOCC3)cc2)nnc1-c1ccc(OC)cc1	i
CC1CN(Cc2cc(=O)n3ccsc3n2)CC(C)O1 (configuration not stated)	i
O=C(NCc1ccccc1)c1ccc(S(=O)(=O)N2CCCc3ccccc32)cc1	6.0
O=C(Nc1nc2c(s1)CCCC2)c1cccnc1	0.0
O=C(c1ccc(Cl)cc1)c1cnc(Nc2ccccc2Cl)s1	i
Cc1ccc(-c2nn(Cc3ccccc3)cc2/C=C/C(=O)O)cc1	0.2
O=C(O)C1CCN(c2ncccn2)CC1	0.4
O=C(CSc1ncccn1)n1c2c(c3ccccc31)CCCC2	0.9
Cc1ccc2nc(-c3ccc(NC(=O)CN4CCN(C(=O)c5ccco5)CC4)cc3)sc2c1	i
Cc1cc(C)c2cc(CN(CCO)C(=O)Nc3ccc(F)cc3)c(=O)[nH]c2c1	1.4
COC(=O)c1cc[n+](CC(=O)c2ccccc2)cc1	0.4
O=S(=O)(NCCc1ccncc1)c1cc(Br)ccc1F	0.8
Cc1cc(C(C#N)c2ccccc2)n2ncnc2n1 (configuration not stated)	0.3
Cn1nc(C(=O)Nc2ccc(S(=O)(=O)N3CCCC3)cc2)ccc1=O	i
O=C(c1ccccc1S(=O)(=O)NCC(O)COc1ccc([N+](=O)[O-])cc1)N1CCCCC1 (configuration not stated)	0.1
CCS(=O)(=O)N1CCCC(C(=O)NCC2CCCO2)C1 (configuration not stated)	0.2
Cc1ccc(CNc2ccc3c(c2)OCO3)c(C)c1	i
O=C(Nc1ccccc1)N(CCN1CCOCC1)Cc1ccccc1F	i
Clc1ccc(OCCn2cnc3ccccc32)cc1	2.9

Next part.
Compound	H5N1 antiviral
CC(=O)Nc1nnc(SCC(=O)NCCOc2ccccc2)s1	i
Cn1c(/N=C/c2cccs2)nc2ccccc21	0.1
COc1cccc(N(CC(=O)N2CCc3ccccc3C2)S(C)(=O)=O)c1	0.0
COC(=O)c1cc2oc3ccccc3c2n1Cc1ccccn1	0.6
Cc1cc(NS(=O)(=O)c2cccs2)no1	0.1
CCOC(=O)Nc1ccc(NC(=O)OCC)cc1	i
O=C(NCCCNc1ccc(C(F)(F)F)cc1[N+](=O)[O-])c1ccc(Cl)cc1	i
Cc1cccc(NC(=S)NC(=O)CCc2ccccc2)c1C	i
